# Screening results deposited in PubChem by National Center for Advancing Translational Sciences (NCATS).
# SARS PLpro yeast: qHTS of Yeast-based Assay for SARS-CoV PLP. S. cerevisiae expressing SARS-CoV PLpro, growth rescue; control for the full effect not named in the record. Potency, µM (titrated, usually from 32.9 µM), for inactives: top-dose activity, positive = growth rescue. 330,000 tested, 0.19% active. AID 485353, 2010; active means well fitted rising curve with a large enough effect; inconclusive means small, poorly fitted or top-dose-only effect; inactive means no such curve, though single readings can be large or run the other way; note: 0% is about no effect; nearly all actives have a fitted effect of over 55% in size; growth read by luminescence after 48 h
# Lassa entry inh: qHTS for Inhibitors of binding or entry into cells for Lassa Virus; Lassa virus pseudotype entry inhibition, cell reporter; control for the full effect not named in the record; Potency, µM (top dose mostly 37.9 µM), for inactives: at the top dose activity change, negative = inhibition, hits mostly inhibitors; 300,000 tested, 1.2% active; AID 540256, 2011; active means well fitted inhibition curve with a large enough effect; inconclusive means small, poorly fitted or top-dose-only effect, or effect the other way; inactive means flat fitted curve, though single readings scatter; tested in HEK293 cells; note: % is set by controls: 0 for no effect and ±100 for the full control effect; nearly all actives have a fitted effect of over 50% in size; luciferase read-out
# Cruzain inh Det: qHTS Assay for Promiscuous and Specific Inhibitors of Cruzain (with detergent); purified cruzain, Z-FR-AMC fluorescence, 0.01% Triton; Potency, µM, without a hit: max response, negative = inhibition, actives largely listed as inhibitors; 200,000 tested, 0.43% active;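 note: plate controls were neutral wells for no effect and buffer without enzyme for full effect; nearly all actives have a fitted effect of over 40% in size; top concentration of the series not given in the record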
# Target sequence (P25779 123-467 limits assumed): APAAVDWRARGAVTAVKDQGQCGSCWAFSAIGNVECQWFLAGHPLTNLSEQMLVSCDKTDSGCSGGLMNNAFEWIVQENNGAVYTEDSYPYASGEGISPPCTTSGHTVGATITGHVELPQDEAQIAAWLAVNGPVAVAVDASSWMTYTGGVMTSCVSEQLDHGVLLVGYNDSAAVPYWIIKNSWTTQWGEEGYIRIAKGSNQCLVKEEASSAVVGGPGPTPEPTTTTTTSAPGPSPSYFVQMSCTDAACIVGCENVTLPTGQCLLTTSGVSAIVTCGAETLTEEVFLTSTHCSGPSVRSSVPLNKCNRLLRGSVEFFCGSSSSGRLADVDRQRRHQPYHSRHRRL
#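 Steps: dispense cruzain (1.5 nM final) in acetate buffer pH 5.5 with DTT and 0.01% Triton X-100; pin-transfer compounds; incubate 15 min RT; add Z-FR-AMC (2 uM final); read fluorescence every 30 s, using the 60 s intensity change.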
# NS1 function inh: qHTS Assay for Inhibitors of Influenza NS1 Protein Function | S. cerevisiae slowed by influenza A NS1, growth recovery by OD600 | Potency, µM (top dose mostly 46.1 µM), without a hit: at the top dose activity, positive = more growth | 270,000 tested, 0.4% active | AID 2326, 2010; active means well fitted rising curve with a large enough effect; inconclusive means small, poorly fitted or top-dose-only effect; inactive means no such curve, though single readings can be large or run the other way; note: nearly all actives have a fitted effect of over 50% in size
#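 Recovery from NS1-induced slow growth read by OD600 in budding yeast switched to galactose assay medium (pH 6.0, -URA) at 1:100 dilution. Compound 23 nl per well; the matching strain lacking NS1 serves as control.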
# 2A StopGo: High Throughput Screening for Foot and Mouth Disease Virus Antivirals; human cells with a luciferase reporter of 2A StopGo recoding; control for the full effect not named in the record; Potency, µM (doses to about 57.9 µM), without a hit: at the highest dose signal change, negative = less light; 410,000 tested, 1.2% active; active = well fitted falling curve with a large enough effect; inconclusive = small, poorly fitted or top-dose-only effect; inactive = no such curve, though single readings can be large or run the other way; tested in HEK293T cells; note: % is set by controls: 0 for no effect and ±100 for the full control effect; nearly all actives have a fitted effect of over 45% in size; luciferase light after 4 h
# Marburg entry inh: qHTS for inhibitors of binding or entry into cells for Marburg Virus; Marburg virus pseudotyped entry inhibition, cell reporter; control for the full effect not named in the record; about a third of the inactives were read at about 46 µM; Potency, µM (doses to about 37.8 µM), for inactives: top-dose activity change, negative = inhibition, usual class: inhibitors; 300,000 tested, 1.8% active; active = well fitted inhibition curve with a large enough effect; inconclusive = small, poorly fitted or top-dose-only effect, or effect the other way; inactive = flat fitted curve, though single readings scatter; tested in HEK293 cells; about a fifth of its hits are not listed in these tables; note: % is set by controls: 0 for no effect and ±100 for the full control effect; luciferase read-out
# RE007 growth inh: qHTS Assay for Inhibitors of the HIV-1 protein Vpr. S. pombe RE007 Vpr strain, BacTiter-Glo ATP luminescence, 24 h; control for the full effect not named in the record. AID 651644, 2012. Potency, µM (doses to about 92.2 µM), for inactives: top-dose activity change, negative = less growth. 360,000 tested, 0.21% active; active = well fitted falling curve with a large enough effect; inconclusive = small, poorly fitted or top-dose-only effect; inactive = no such curve, though single readings can be large or run the other way;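 note: % is set by controls: 0 for no effect and ±100 for the full control effect; nearly all actives have a fitted effect of over 50% in size; the assay follows cell death caused by Vpr and the record does not say whether a fall means rescue or toxicity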
#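 Fission yeast strain RE007, carrying one chromosomally integrated HIV-1 vpr copy, was seeded at OD 0.01 in PMG+AL medium with 23 nL pinned compound. After 24 h at 30 °C and 99% humidity, viability was read by BacTiter-Glo luminescence.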
# Cruzain inh noDet: qHTS Assay for Promiscuous and Specific Inhibitors of Cruzain (without detergent) | AID 1476, 2009 | Potency, µM, for the others: max response, negative = inhibition, hits mostly inhibitors | Cruzipain (Trypanosoma cruzi), P25779 | purified cruzain, Z-FR-AMC fluorescence, no detergent | 200,000 tested, 2.3% active;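 note: plate controls were enzyme without inhibitor for no effect and buffer without enzyme for full effect; nearly all actives have a fitted effect of over 40% in size; top concentration of the series not given in the record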
#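 Purified cruzain at 1.5 nM, pre-incubated 15 min with compound at room temperature in 100 mM sodium acetate pH 5.5, 5 mM DTT, 0.00005% Triton X-100. Reaction started with 2 uM Z-FR-AMC; AMC fluorescence increase over 60 s gives rate.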
# * = called active by the depositor; u = inconclusive; x = not tested or not shown; & = joins results of further samples; [ ] = another dose, or the depositor's remark. Unless noted, calls come from the whole dose curve; as a rule, active = well fitted curve in the direction sought with a large enough effect; inconclusive = small, poorly fitted or top-dose-only effect, or another doubt; inactive = no such curve, though single readings can be large; an effect the other way counts as inactive or inconclusive. Potency is the fitted concentration of half-maximal effect.
SMILES,SARS PLpro yeast,Lassa entry inh,Cruzain inh Det,NS1 function inh,2A StopGo,Marburg entry inh,RE007 growth inh,Cruzain inh noDet
CC(=O)N=C1SC2CS(=O)(=O)CC2N1c1ccc(-c2nc3ccc(C)cc3s2)cc1 (configuration not stated),8%,x,-2.5%,5%,x,0%,x,u
CCCCCn1c(-c2ccc(OC)c(OC)c2)nc2ccccc21,x,-30%[46.1 µM],-9.0%,x,-18%,u,x,-7%
CCCSc1nc(C)cc(C)c1C(N)=O,2%,14%,2.9%,2%,-3%,8%,31%,-2%
COc1ccc(CC(=O)Nc2cc(C)on2)cc1,-4%,26%,2.4%,-4%,22%,3%,12%,3%
CCOC(=O)c1[nH]c2ccccc2c1NC(=O)c1ccc(OC)c(OC)c1,x,7%[46.1 µM],-7.2%,x,-10%,-3%[46.1 µM],x,9%
Cc1cccc(C)c1Nc1nnc(SCC(=O)Nc2ncc(C(F)(F)F)cc2Cl)s1,21%,1%,-3.0%,11%,-12%,u,21%,0%
Cc1ccc(NC(=O)CCNS(=O)(=O)c2cccs2)cc1F,0%,10%[46.1 µM],-2.2%,-18%,72%&97%[activator],13%&-1%[46.1 µM],-2%,5%
COc1ccc(C(=O)N/N=C\c2ccoc2)cc1,-7%,x,x,5%,70%[activator],x,10%,x
CN1CCc2c(sc3nc(NCCO)n(-c4cccc(Cl)c4)c(=O)c23)C1,-2%,x,x,4%,20%,x,-9%,x
COc1ccc(C(=O)CCN2CCCCCC2)cc1,-24%,-24%,u,1%,-19%,-4%&-4%,7.1µM*,-26%
Cc1cc(C)n(CC2CC(=O)N(c3ccc(F)c(Cl)c3)C2=O)n1 (configuration not stated),-8%,10%,3.9%,0%,6%,3%,9%,3%
CNCc1sccc1C,3%,x,x,x,7%,1%[46.1 µM],-15%,x
CCOc1ccc2cc(/C=C/C(=O)c3ccco3)c(Cl)nc2c1,-8%,u,-0.3%,-11%,9%,u,-27%,3%
O=C(COc1ccc2ccccc2c1)NC1CC1,4%,u,6.3%,-91%,13%,15%,-18%,2%
CCOc1ccc(S(=O)(=O)N2CCN(Cc3ccccc3)CC2)c2cccnc12,2%,-22%,-0.4%,-23%,-24%,5%,4%,22%
CCOC(=O)c1c(C)c(-c2ccccc2)n(CC(=O)Nc2ccc(OCC)cc2)c1C,x,x,0.3%,x,7%,u,x,6%
O=C(C1=C(O)C(=O)N(CCN2CCOCC2)C1c1cccc(Br)c1)c1cc2ccccc2o1 (configuration not stated),-3%,x,x,20%,11%,x,8%,x
O=C(COC(=O)CNC(=O)c1cccs1)Nc1ccccc1C(F)(F)F,-1%,-30%,x,x,-11%,25%[46.1 µM],-2%,x
Cn1c(CCC(=O)Nc2ccc(N3CCOCC3)cc2)nc(=O)c2ccccc21,9%,14%,-1.1%,-2%,10%,6%,11%,2%
COc1cc(NC2c3ccccc3C(=O)N2c2ccc(C)cn2)cc(OC)c1OC (configuration not stated),-16%,-21%,3.6%,-4%,0%,-35%,6%,-5%
O=C(Cc1ccc(Cl)cc1)NCC(=O)N1CCN(Cc2ccccc2)CC1,u,-11%,x,8%,-18%,u,3%,x
O=C(NN=C1CCCCC1)c1cc(-c2ccccc2)n[nH]1,12%,u,-2.1%,17%,-21%,u,10%,2%
CCc1nnc(NC(=O)CCC(=O)N2CCN(c3ccccn3)CC2)s1,-2%,-1%,5.1%,1%,-3%,-3%,-14%,-4%
CCOC(=O)c1c(NS(=O)(=O)c2cccc(OC)c2)sc2c1CCC2,-1%,11%[14.3 µM],-12%,-16%,-2%,-12%,18%,-22%
COC(=O)C1=C(c2ccc(OC)cc2)OC(=O)C1(C)C,-3%,x,x,16%,-14%,x,7%,x
Cc1ccc(S(=O)(=O)N2CCN(C(=O)CC(C)(C)C)CC2)cc1,0%,-17%,x,-4%,u,5%[46.1 µM],-2%,x
COc1ccccc1-c1c(C(F)(F)F)oc2c(CN(C)C)c(O)ccc2c1=O,-3%,x,x,-5%,0%,x,7%,x
CCC1Sc2ccc(S(=O)(=O)N3CCN(c4ccccc4)CC3)cc2NC1=O (configuration not stated),-2%,x,x,13%,-27%,x,10%,x
Cc1cc(Cl)c(S(=O)(=O)Nc2ccc(Cl)cn2)cc1OCC(N)=O,27%,22%,-2.2%,1%,4%,6%,19%,3%
COc1ccc(OCCN2CCN(C(=O)c3ccc(OC)cc3)CC2)cc1,1%,u,x,0%,u,u,5%,x
Cc1nc(C)c(C(=O)NCCC(c2ccccc2)c2ccccc2)o1,1%,u,x,x,u,-8%[46.1 µM],11%,x
Cn1cc(S(=O)(=O)Nc2ccc(F)cc2F)c(=O)n(C)c1=O,1%,x,-1.7%,-4%,-4%,x,1%,1%
CCCNC(=O)c1cnn2c(C)c(Cc3c(C)cc(C)cc3C)c(C)nc12,x,u,2.6%,x,u,x,x,-2%
CCOC(=O)N1CCC(NC(=O)c2cc(C)c3c(C)nn(-c4ccccc4)c3n2)CC1,6%,2%,8.0%,-3%,-3%,8%,5%,u
CN(C)S(=O)(=O)c1ccc(NC(=O)CCNC(=O)c2ccco2)cc1,-1%,-3%,x,-14%,-3%,12%[46.1 µM],-17%,x
CN(C)C(CNC(=O)C1CCN(S(=O)(=O)c2cccc(C(F)(F)F)c2)CC1)c1ccccc1 (configuration not stated),-5%,u,x,0%,0%,u,4%,x
Cc1cccc(Cn2nc(C(C)(C)C)cc2C(=O)N2CCOCC2)c1,-3%,x,x,4%,0%,-6%,7%,x
CC(=O)c1c(O)n(-c2cccc(Cl)c2)c(=O)[nH]c1=O (tested in a mixture with another compound),1%,23%,x,u,-25%,6%,-3%,x
CC(C)NCC(O)COc1c(F)cc(Br)cc1F (configuration not stated),-1%,-4%,1.9%,-4%,-11%,-11%,u,1%
c1ccc2c(c1)CC1(CCCCC1)n1nnnc1-2,14µM*,10%,0.0%,-5%,u,-14%,3%,-3%
COc1ccc(C(=O)CSc2nnc3ccccn23)cc1OC,-3%,6%,x,x,23%,15%,17%,x
O=C(c1cc(F)c(F)cc1Cl)N1CCN(c2ccc([N+](=O)[O-])c3ncccc23)CC1,25%,1%,-4.6%,-18%,u,u,0%,1%
O=C(NC12CC3CC(CC(C3)C1)C2)C1=COCCO1,2%,-10%,5.4%,-6%,-13%,6%,-2%,-4%
CCOC(=O)c1ccc(NC(=O)CC2C(=O)N(c3ccc(F)cc3)C(=O)N2Cc2cccnc2)cc1 (configuration not stated),x,-4%[46.1 µM],-5.2%,x,-11%,x,x,2%
CCCCOc1ccc(N(CC(=O)NC(C)C)C(=O)CCC(=O)Nc2ccccn2)cc1,10%,-16%,x,3%,-10%,1%[46.1 µM],2%,x
Cc1ccc(C(=O)N2CCCCCC2)cc1S(=O)(=O)Nc1ccccc1,-2%,u,x,-5%,36%[activator],-19%,-10%,x
O=C(CN1CCC(NC(=O)C2CC2)CC1)Nc1cccc(F)c1,3%,0%,x,-21%,-10%,16%[46.1 µM],7%,x
COc1ccc(C)cc1S(=O)(=O)N(CC(=O)Nc1ccc2c(c1)OCCO2)Cc1ccccc1,1%,-2%,-3.1%,-54%,-9%,u,-7%,-4%
Cc1ccc(CO/N=C/C2=C(Cl)c3ccccc3CC2)cc1,x,u,2.1%,11%,-1%,u,2%,-16%
O=C1CCC([N+](=O)[O-])C(C2CC=CCC2)N1 (configuration not stated),x,22%,x,x,6%,-9%[46.1 µM],43%,x
COc1ccc(C(=O)N2CCN(Cc3nc(CC4CC4)no3)CC2)cc1,4%,x,x,0%,-12%,x,-7%,x
CCC(=O)NC1(C(F)(F)F)C(=O)NC(C)=C1C#N (configuration not stated),18%,-22%,11%,-1%,-21%,1%[46.1 µM],1%,0%
Cc1ccc(NC(=O)CS(=O)CC(=O)N(C2CCCC2)C(C)C(=O)NC2CCCCC2)cc1 (configuration not stated),-10%,-29%,1.0%,-7%,x,-12%,-1%,u
CC1CCC(n2c(=S)[nH]c3ccccc3c2=O)CC1 (configuration not stated),u,-3%,-6.3%,-9%,0%,-3%,-4%,-2%
COc1ccc(CNC(=O)COc2cc3c(c4oc(=O)cc(C)c24)CCC(C)(C)O3)cc1,-7%,x,x,-1%,u,x,5%,x
Nc1c(Br)c(=O)[nH]c(=O)n1-c1ccc(F)cc1,2%,5%[46.1 µM],x,3%,13%,3%[46.1 µM],-17%,x
CC(C)Cn1nc(NS(=O)(=O)c2cccc3nonc23)c2cc3ccccc3nc21,u,x,x,7%,22%,x,2%,x
Cc1ccc(CNC(=O)C2CCC(CNc3nc(=S)[nH]c4ccccc34)CC2)cc1 (configuration not stated),2%,-14%,x,x,-24%,3.5µM*,-27%,x
CCOC(=O)Cn1c(=NC(=O)C(C)C)sc2c(C)cc(C)cc21,-2%,1%,x,-1%,u,-2%[46.1 µM],u,x
CC1CCC(NS(=O)(=O)c2ccc(Cl)nc2)CC1 (configuration not stated),2%,3%,x,x,113%[activator],7%,4%,x
O=C(CSc1nnc2ccc(-c3cccnc3)nn12)Nc1ccccc1,x,-4%,x,x,-21%,6%,-4%,x
CCc1ccc(N(CC(=O)NCc2ccco2)C(=O)CCC(=O)Nc2nccs2)cc1,2%,14%[46.1 µM],x,5%,4%,u,-3%,x

# Record cards, as listed above:
# `CCOC(=O)c1c(NS(=O)(=O)c2cccc(OC)c2)sc2c1CCC2` is listed as SARS PLpro yeast = -1%; Lassa entry inh = 11%[14.3 µM]; Cruzain inh Det = -12%; NS1 function inh = -16%; 2A StopGo = -2%; Marburg entry inh = -12%; RE007 growth inh = 18%; Cruzain inh noDet = -22%
# `Cc1ccc(C(=O)N2CCCCCC2)cc1S(=O)(=O)Nc1ccccc1` is listed as SARS PLpro yeast = -2%; Lassa entry inh = u; Cruzain inh Det = x; NS1 function inh = -5%; 2A StopGo = 36%[activator]; Marburg entry inh = -19%; RE007 growth inh = -10%; Cruzain inh noDet = x
